# Vif A3G: inhibitors of Vif binding to APOBEC3G peptide, primary screen, biochemical, TR-FRET, GST-Vif 1-94, biotin-A3G peptide, dose response retest (AID 1117319); TR-FRET GST-Vif / biotin-A3G peptide binding; higher % means a stronger effect; test concentration not given here; strong numbers were not always called active; inhibition, %; hits with a dose series show IC50 in µM; hit rate 0.57% among 260,000;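 active means above the screen mean plus three standard deviations and confirmed in dose response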;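 further: Vif residues 1-94 fused to GST binding biotinylated APOBEC3G peptide 110-148; 0% = full assay without inhibitor and 100% = GST in place of GST-Vif; retest series ran down from 100 µM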
# AF4-AF9 inh: inhibitors of human MLL-AF4/AF9 interaction | AID 651704 | hit rate 0.47% among 350,000 | AlphaScreen, biotin-AF4 peptide binding to FLAG-AF9 | inhibition, % at 10 µM;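 active means every replicate reaching a set inhibition limit, whatever the replicate mean, cut at about 25% in these data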;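 further: 0% = plate neutral control median and 100% = total signal loss; the record names both 10 and 1 µM as test concentration; the first replicate is given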
# Target sequence (P42568 whole entry, looked up): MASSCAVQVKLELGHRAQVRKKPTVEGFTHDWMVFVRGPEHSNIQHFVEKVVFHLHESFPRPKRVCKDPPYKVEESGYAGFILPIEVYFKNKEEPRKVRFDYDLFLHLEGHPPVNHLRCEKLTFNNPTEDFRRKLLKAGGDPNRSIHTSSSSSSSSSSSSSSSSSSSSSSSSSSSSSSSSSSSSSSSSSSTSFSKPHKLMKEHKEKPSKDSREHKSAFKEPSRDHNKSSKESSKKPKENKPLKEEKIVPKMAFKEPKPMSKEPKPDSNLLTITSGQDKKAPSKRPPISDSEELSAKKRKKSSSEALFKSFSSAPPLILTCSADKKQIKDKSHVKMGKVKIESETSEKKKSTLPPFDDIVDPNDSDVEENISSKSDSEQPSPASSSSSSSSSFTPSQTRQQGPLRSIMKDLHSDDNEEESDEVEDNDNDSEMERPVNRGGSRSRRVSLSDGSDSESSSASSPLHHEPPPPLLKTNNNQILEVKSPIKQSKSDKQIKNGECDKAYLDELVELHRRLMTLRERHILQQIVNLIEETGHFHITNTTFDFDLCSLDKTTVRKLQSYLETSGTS
# HNF4A DNA FP: change in binding of human HNF4 alpha to DNA; activity change, % at 10 µM; HNF4a-FITC DNA binding, fluorescence polarization, 1 h; AID 1224865; P41235; hit rate 0.3% among 360,000; in the data active means activity change above about 30%, passing the limit was not always enough;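 further: controls were the assay level and a saturating level of protein; the project sought stronger binding though the title names inhibitors; some compounds called inactive have numbers as strong as hits; positive values seem to mean higher polarization but the record does not say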
# Target sequence (P41235 whole entry, looked up): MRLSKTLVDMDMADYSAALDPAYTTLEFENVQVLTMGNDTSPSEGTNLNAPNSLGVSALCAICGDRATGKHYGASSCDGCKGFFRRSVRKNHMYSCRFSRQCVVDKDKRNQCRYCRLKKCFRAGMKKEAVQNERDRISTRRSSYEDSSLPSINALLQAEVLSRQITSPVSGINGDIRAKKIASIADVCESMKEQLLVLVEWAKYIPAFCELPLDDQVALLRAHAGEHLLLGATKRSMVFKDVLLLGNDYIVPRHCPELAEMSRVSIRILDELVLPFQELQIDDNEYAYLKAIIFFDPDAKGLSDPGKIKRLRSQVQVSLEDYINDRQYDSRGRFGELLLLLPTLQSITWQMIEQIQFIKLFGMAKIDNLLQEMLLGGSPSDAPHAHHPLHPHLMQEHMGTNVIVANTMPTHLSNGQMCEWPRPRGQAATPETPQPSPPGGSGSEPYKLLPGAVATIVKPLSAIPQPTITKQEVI
# rRNA inh HTS: selective bacterial rRNA inhibition in E. coli; E. coli WT GFP vs humanized-ribosome RFP mutants, fluorescence, 24 h; stronger effect = lower value; DMSO median 0, no signal -100; AID 720706; GFP signal change (wild-type ribosome), % (test concentration not listed); hit rate 1.6% among 350,000;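 active means significant combined selectivity score with lowered wild-type GFP, culture density cut under 30%, mutant RFP and density less affected; inactive means any of these conditions unmet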; further: one replicate is shown; some compounds called inactive have numbers as strong as hits
# E coli growth: blocks Escherichia coli growth; OD600, 23 h; stronger effect = lower value; hit rate 0.21% among 330,000; OD600 absorbance (no concentration beside the values); AID 1053175;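 active means OD600 absorbance below the run mean of sample wells minus 3.6 SD, in any replicate, cut at about 0.56 in these data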;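 further: stock transfer was 300 nL into about 60 µL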
# ALR inh: inhibitors of human sulfhydryl oxidase ALR; P55789; AID 485317; inhibition, % (concentration not given with the values); hit rate 3.8% among 290,000; purified ALR, DTT oxidation, H2O2 HRP-luminol luminescence;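 active means mean and each replicate at 75% or more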;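 further: stock transfer was 7.5 nL into about 7.5 µL; 0% = neutral wells and 100% = wells with inactivated enzyme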
# FGF22 binding: shifts melting point of recombinant human FGF22. calls only at 9.99 µM. AID 651658. hit rate 1.5% among 340,000. recombinant FGF22 thermal shift, SYPRO orange fluorescence; percent of sucrose octasulfate shift, DMSO zero. Q9HCT0;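 active means melting point raised past a set limit in the mean and every replicate; three in four hits are not shown here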
# rRNA inh HTS OD600: also measured in rRNA inh HTS; calls as there; OD600 change, %; measured here: OD600 growth;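 optical density of the mix in the first replicate; 0 = DMSO median and -100 = no signal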
# rRNA inh HTS RFP: recorded beside rRNA inh HTS, whose call it bears; RFP signal change, %; measured here: RFP humanized mutant strains;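 first replicate; 0 = DMSO median and -100 = no signal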
# * hit, by the source's call; i = inactive; . = no result given; + = active, no number.
HNF4A DNA FP	ALR inh	rRNA inh HTS	rRNA inh HTS RFP	AF4-AF9 inh	Vif A3G	E coli growth	FGF22 binding	compound	rRNA inh HTS OD600
0.0	19	9	-4.3	4.7	4%	0.69	i	COc1ccccc1-n1cn[nH]c1=S	-6
-3.3	-2	2	-0.8	-4.0	-12%	0.65	i	Cc1cccn2c(=O)nc(SCC(=O)c3ccccc3)nc12	5
2.9	29	.	.	.	2%	0.6	.	S=C(Nc1cccc(Cl)c1)Nc1ccc2cn[nH]c2c1	.
1.4	.	-1	-1.9	19	7%	.	i	CC(NNC(=S)N1CCN(c2ccccn2)CC1)c1nccc2ccccc12 (centres undefined)	-2
-1.5	-57	2	-1.0	-6.4	-6%	0.71	i	COc1ccc2c(c1)cc(C(=O)N[C@@H](Cc1ccccc1)C(=O)N[C@@H](C)C(=O)O)n2C	5
0.0	.	2	1.0	-3.7	-3%	0.69	i	CC(=O)C1=C(O)C(=O)N(Cc2ccco2)C1c1cccc(F)c1 (centres undefined)	-4
6.8	.	7	0.9	9.8	-1%	0.73	i	CC(NC(=O)CCn1nc(-c2ccc(Cl)cc2)ccc1=O)c1ccccc1 (centres undefined)	10
0.7	5	-21	-6.7	-8.7	4%	0.69	i	Cc1cc(O)c(C(=O)Cc2csc(C)n2)c(O)c1	-34
.	.	-1	6.1	2.9	.	.	i	C[C@H](CO)N1C[C@H](C)[C@@H](CN(C)Cc2ccc(Oc3ccccc3)cc2)Oc2ccc(NS(=O)(=O)c3ccccc3)cc2CC1=O	-2
5.2	-19	-1	7.1	-0.6	.	0.66	i	Cc1cc(OC(C)C(=O)N(Cc2cccs2)C2CCS(=O)(=O)C2)ccc1Cl (centres undefined)	-17

# Full records, quoted from the list.
# C[C@H](CO)N1C[C@H](C)[C@@H](CN(C)Cc2ccc(Oc3ccccc3)cc2)Oc2ccc(NS(=O)(=O)c3ccccc3)cc2CC1=O is entered as HNF4A DNA FP = .; ALR inh = .; rRNA inh HTS = -1; rRNA inh HTS RFP = 6.1; AF4-AF9 inh = 2.9; Vif A3G = .; E coli growth = .; FGF22 binding = i; rRNA inh HTS OD600 = -2
# S=C(Nc1cccc(Cl)c1)Nc1ccc2cn[nH]c2c1 is entered as HNF4A DNA FP = 2.9; ALR inh = 29; rRNA inh HTS = .; rRNA inh HTS RFP = .; AF4-AF9 inh = .; Vif A3G = 2%; E coli growth = 0.6; FGF22 binding = .; rRNA inh HTS OD600 = .

# Remaining list, next part.
HNF4A DNA FP	ALR inh	rRNA inh HTS	rRNA inh HTS RFP	AF4-AF9 inh	Vif A3G	E coli growth	FGF22 binding	compound	rRNA inh HTS OD600
.	.	1	-1.8	-0.3	.	.	i	O=C(C[C@@H]1C=C[C@H](NC(=O)Cc2cccnc2)[C@@H](CO)O1)Nc1ccccc1	5
.	.	0	-0.7	-2.1	.	.	i	C[C@H](CO)N1C[C@H](C)[C@H](CN(C)S(=O)(=O)c2ccc(F)cc2)Oc2ccc(NC(=O)Cc3cn(C)c4ccccc34)cc2C1=O	0
1.0	.	.	.	-1.4	1%	0.64	i	Nc1nc(N)c2[nH]c(=S)[nH]c2n1	.
-1.8	-11	.	.	-2.4	.	0.66	i	CCCCN1CCCCC1C(=O)Nc1c(C)cccc1C (centres undefined)	.
0.8	-1	.	.	.	24%	0.72	.	Cc1ccc2c(c1)N(CC(=O)N1CCc3ccccc3C1)C(=O)CO2	.
-0.3	-2	.	.	.	68%	0.71	.	CC1CCc2cc(F)ccc2N1C(=O)C1(C)CC1(Cl)Cl (centres undefined)	.
.	.	-4	1.6	2.9	.	.	i	C[C@@H]1CCCCO[C@H](CN(C)C(=O)C2CCCCC2)[C@H](C)CN([C@H](C)CO)C(=O)c2cc(NC(=O)c3ccccc3)ccc2O1	-15
-5.3	.	3	0.7	1.9	-3%	0.64	i	CN(C)c1ccc(C(=O)C(O)c2ccccc2Cl)cc1 (centres undefined)	6
.	.	-35	16	13	.	.	i	CCCC#Cc1ccc2c(c1)O[C@H](CN(C)Cc1cncnc1)[C@@H](C)CN([C@@H](C)CO)S2(=O)=O	-67
4.3	-2	-4	-4.0	-2.4	.	0.62	i	COC(=O)c1nc(-c2ccccc2)nc(-c2ccccc2)c1C(=O)OC	-1
2.6	6	7	-0.9	-9.7	7%	0.7	i	COc1ccc(C2=NC(=O)/C(=C\c3cc(OC)c(OC)c(OC)c3)O2)cc1	-3
.	.	-3	-0.5	-1.2	.	.	i	C[C@@H]1CN([C@@H](C)CO)C(=O)c2cc(NC(=O)NC3CCCCC3)ccc2O[C@@H](C)CCCCO[C@@H]1CN(C)C(=O)NC1CCCCC1	-12
.	.	-55	-15	4.6	.	.	i	O=C(C[C@H]1CC[C@@H]2[C@H](COC[C@@H](O)CN2Cc2cccc(C(F)(F)F)c2)O1)NCc1ccc(Cl)cc1	-76
1.6	-10	0	-1.0	6.1	-1%	0.72	i	CCOc1ccc(NC(=S)NC(C)C(c2ccccc2)N2CCN(C)CC2)cc1 (centres undefined)	-5
-0.1	1	-27*	0.5*	2.9	.	0.66	i	Cc1ccc(C)c(CN2CCC(n3nccc3NC(=O)CCCc3ccccc3)CC2)c1	-20*
-0.4	-22	.	.	.	.	0.71	.	CCc1ccccc1NC(=O)Cc1ccc(-n2cccc2)cc1	.
3.8	2	-37*	-6.8*	2.3	-3%	0.65	i	Cn1cc(CCCC(=O)NCc2ccc(F)cc2)c2ccccc21	-27*
1.4	-2	-1	4.3	-2.6	.	0.73	i	CCc1cccc(NC(=O)CCCn2nc(CC)n3c(cc4occc43)c2=O)c1	-11
.	-21	.	.	.	-10%	0.73	.	CCN(C(=O)COC(=O)c1cc(-c2ccc3cc(OC)ccc3c2)nc2ccccc12)C1CCS(=O)(=O)C1 (centres undefined)	.
1.7	-10	-2	-4.6	-5.0	.	0.71	i	CC(C)c1ccc(NC(=O)c2cccc(Br)c2)cc1	1
3.6	.	10	-1.0	-13	.	.	i	COCCNC(=O)C1(C)CCCN(C(=O)c2ccccc2OC)C1 (centres undefined)	8
-2.2	-5	.	.	.	-6%	0.66	.	CCC(C)NS(=O)(=O)c1ccc(-c2csnn2)s1 (centres undefined)	.
1.6	-8	15	-1.0	-0.9	-1%	0.72	i	O=C(CNC(=O)c1ccc(Br)o1)OCC(=O)c1cccc([N+](=O)[O-])c1	9
.	.	-2	-1.7	7.2	.	.	i	C[C@H](CO)N1C[C@H](C)[C@H](CN(C)Cc2ccncc2)Oc2cc(-c3cccnc3)ccc2S1(=O)=O	2
-41	4	.	.	.	1%	0.68	.	COc1ccc(/C=C2\SC(=S)N(CCC(=O)Nc3ccc(C(=O)O)cc3)C2=O)cc1OC	.
-0.6	-6	4	3.7	-1.7	3%	0.68	i	O=C(COC(=O)c1cccnc1Cl)NCCC1=CCCCC1	7
0.6	0	-2	-0.2	-4.1	2%	0.71	i	CC(=O)c1cccc(OCC(=O)Nc2cc(S(=O)(=O)N3CCOCC3)ccc2N2CCCC2)c1	-7
-3.2	.	10	-3.7	-1.6	1%	0.69	i	COc1cccc(OC)c1C(=O)N1CCN(c2ccccn2)CC1	-1
0.2	1	5	-2.1	-3.6	-1%	0.68	i	COc1ccc(C(=O)NCCN2CCOCC2)cc1S(=O)(=O)Nc1ccc(C)cc1	7
4.0	-6	12	3.7	-11	-3%	0.71	i	COc1ccccc1N=Nc1c(C)[nH][nH]c1=O	11
1.0	-3	5	-1.9	3.1	.	0.64	i	NCCCNc1ccc([N+](=O)[O-])cc1C(F)(F)F	0
0.4	-34	.	.	.	4%	0.7	.	N#CC1=C(N)C2=CCCC[C@H]2[C@H](c2ccc(Br)cc2)C1(C#N)C#N	.
0.5	.	.	.	.	8%	0.7	.	O=C(Oc1cccc2cccnc12)c1cccc(-n2cnnn2)c1	.
.	.	3	-1.0	-0.1	.	.	i	COCc1cn(CC[C@@H]2CC[C@@H](NC(=O)Nc3c(C)noc3C)[C@H](CO)O2)nn1	9
0.7	.	4	-1.0	-1.1	.	0.7	i	Cc1ccccc1NC(=O)c1cccc(S(=O)(=O)N2CCOCC2)c1	9
-1.1	1	0	-1.0	7.0	.	0.73	i	COc1c(C)cc(C(=O)C2CCCN(Cc3cccc4nccnc34)C2)cc1C (centres undefined)	-12
.	.	-2	0.2	-14	.	.	+	OC[C@@H]1[C@@H](c2ccc(-c3cccnc3)cc2)[C@@H]2CN(Cc3ccccn3)CCCCN12	6
.	.	-30	6.1	0.0	.	.	i	N#C[C@H]1[C@H](c2ccc(-c3ccccc3F)cc2)[C@@H](CO)N1C(=O)Cc1ccccc1	-60
.	-1	.	.	.	17%	0.71	.	Cn1c(N)c(C(=O)COC(=O)c2cc(C(F)(F)F)nc3ccccc23)c(=O)n(Cc2ccccc2)c1=O	.
.	.	0	-1.6	1.4	.	.	i	COCC(=O)N(C)C[C@H]1Oc2cc(C3=CCCCC3)ccc2S(=O)(=O)N([C@@H](C)CO)C[C@H]1C	4
-0.9	-5	15	-0.6	0.9	7%	0.69	i	COc1ccc(-n2nc(C)c3onc(C)c3c2=O)cc1	8
.	.	4	-3.5	-1.5	.	.	i	CO[C@H]1CN(C)C(=O)c2ccc(NC(=O)C3CCCC3)cc2OC[C@@H](C)N(CC2CC2)C[C@H]1C	-4
-2.6	3	11	2.3	1.2	19%	0.66	i	Clc1ccc(SCNc2ccccc2Cl)cc1	7
10	-2	.	.	.	65%	0.66	.	Cc1cc(C)c2nc(N3CCCN(C(=O)c4cnccn4)CC3)c(C#N)cc2c1	.
0.0	47	-10	0.9	-1.9	.	0.69	i	O=C(Nc1cccc2cccnc12)c1cccc(Cl)c1	-3
.	.	-2	-3.6	-2.4	.	.	i	COc1ccc(NC(=O)N(C)C[C@H]2Oc3ccc(NC(=O)C4CCCCC4)cc3CC(=O)N([C@H](C)CO)C[C@H]2C)cc1	-1
-2.2	-2	-2	0.3	-1.6	3%	0.67	i	COc1cccc(CNC(=O)C(CC(C)C)NC(=O)c2ccccc2C)c1 (centres undefined)	4
1.1	-8	1	-2.2	0.6	-10%	0.71	i	COc1ccc(OC)c(N(CC(=O)NC2CCCC2)S(=O)(=O)c2ccc(OC)c(OC)c2)c1	2
1.4	-2	-1	1.9	-6.4	3%	0.64	i	COc1ccccc1CCC(=O)N(CCC1=CCCCC1)c1c(N)n(Cc2ccccc2)c(=O)[nH]c1=O	8
0.9	7	.	.	.	2%	.	.	O=C(/C=C/c1cccs1)c1ccc(Br)cc1	.

# Later entries.
HNF4A DNA FP	ALR inh	rRNA inh HTS	rRNA inh HTS RFP	AF4-AF9 inh	Vif A3G	E coli growth	FGF22 binding	compound	rRNA inh HTS OD600
0.1	-3	4	-2.7	-0.2	7%	0.64	i	CN(c1ccccc1)S(=O)(=O)c1ccc(C(=O)NCc2ccccc2F)cc1	-26
-0.4	-3	.	.	.	-1%	0.76	.	COc1ccc(-c2ccc(-c3nnc(-c4cc(OC)ccc4OC)o3)cc2)cc1	.
-1.1	.	-3	16	3.7	.	.	i	C=CCNc1nc(NCCOc2ccccc2Cl)c2sc(-c3ccccc3)cc2n1	-21
-2.0	0	-7	-6.2	-0.5	-7%	0.67	i	Cc1c(CC(=O)O)c(=O)oc2cc(OCc3ccc(Cl)cc3)ccc12	-9
.	.	2	-0.4	-2.3	.	.	i	Cc1noc(C)c1NC(=O)Nc1cccc2c1O[C@@H](CN(C)CC1CCCCC1)[C@@H](C)CN([C@H](C)CO)C2=O	4
2.4	-3	.	.	0.6	-4%	.	i	O=C(CNc1ccc(F)cc1)N/N=C1\CCc2ccccc21	.
.	.	-3	-2.4	0.0	.	.	i	CN1[C@@H]2c3ccc(/C=C/c4ccccc4)c(=O)n3C[C@@H]2[C@@H](CO)[C@@H]1C(=O)NCCCN1CCOCC1	-9

# High-throughput results (PubChem BioAssay)

# This is a subset; count on the stated rates, not on these rows.
